BasE inh = BasE siderophore enzyme inhibitors, primary screen, biochemical, Acinetobacter baumannii ATCC 17978, fluorescence polarization; purified BasE, fluorescence polarization binding displacement; inhibition, % (no concentration beside the values); 0.1% of 84,000 active; AID 485350, 2010;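 active = both replicates above 25% with normal brightness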;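 also: 0% = negative plate control signal and 100% = positive plate control signal; stock transfer was 100 nL into about 30 µL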
LANA-nucl inh = inhibitors of KSHV LANA-nucleosome binding, primary screen, biochemical, fluorescence polarization, FITC-LANA1-23, chicken nucleosomes. FITC-LANA1-23 / chicken nucleosome fluorescence polarization; active compounds read low. z-score (concentration not given with the values). 0.3% of 51,000 active. AID 720717, 2013;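 active = both repeat wells score below -2 in polarization z-score versus plate sample wells, excluding overly bright wells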;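 also: 100 nL library stock added to about 30 µL; numbers are from one replicate; some results filed as inactive read as strong as hits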
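System – purified chicken nucleosomes with FITC-labelled LANA N-terminal peptide (1-23) · Amount – 240 nM purified chicken nucleosomes (480 nM peptide binding sites), final · Also added – 50 nM FITC-LANA1-23 probe · Medium – TEN-BT buffer, pH 7.5 · Incubation – compound with peptide–nucleosome mix 10–45 min at room temperature · Detection – fluorescence polarization, ex 480 nm, em 535 nm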
* marks the source's active call; other numbers are inactive results; x = not tested or not shown. These rows are one share of the data. The share of hits here may be higher or lower than overall.

compound	BasE inh	LANA-nucl inh
COc1ccccc1-c1noc(CCC(=O)N2CCC(c3c[nH]c4ccccc34)(c3c[nH]c4ccccc34)CC2)n1	1.4	-1.3
O=C(CCS(=O)(=O)Cc1ccccc1)Nc1nccs1	2.9	-0.5
C#CC1(O)CC(C)(C)NC(C)(C)C1	4.2	-0.67
COc1ccc(COCC(O)CN2CCCC(C)C2)cc1OC (stereo not given)	-0.7	x
CCN(Cc1ccccc1)C(=O)C1CCN(Cc2cc(Br)c(O)c(OC)c2)CC1	-0.6	-0.83
O=C1OC(c2ccccc2)=N/C1=C\C=C\c1ccccc1	-2.0	x
O=C(NCCc1nc2ccccc2[nH]1)c1ccc(F)cc1	-2.6	0.73
CCNc1cc(N)[n+](CC)c2n[nH]c(/N=C/c3cc(Cl)cc(Cl)c3O)c12	-0.7	x
C#CCN1CC(OCC)=CC1=O	0.5	0.69
CN(C)c1ccc(C(=O)NCCN2C(=O)S/C(=C\c3ccc4c(c3)OCO4)C2=O)cc1	0.0	x

The results go on.
compound	BasE inh	LANA-nucl inh
c1ccc(Sc2ncnc3ccsc23)nc1	2.8	0.26
CCCC1=C(C(=O)OCC)C(c2ccc(NC(C)=O)cc2)NC(=O)N1 (stereo not given)	-1.8	-0.27
N#C/C(=C\c1ccc(/C=C(\C#N)S(=O)(=O)c2ccccc2)cc1)S(=O)(=O)c1ccccc1	-4.1	x
CCOC(=O)c1c(SC)nc2c(C(F)(F)F)cccc2c1Oc1ccc(OC)cc1	0.4	x
CC(C)(CNC(=O)Cc1ccsc1)N1CCOCC1	3.7	x
c1ccc2oc(-c3csc(NCC4CCCO4)n3)cc2c1 (stereo not given)	-0.2	x
COC(=O)c1cn(-c2ccccc2)c(=O)c2ccccc12	x	0.72
CC(C(=O)NCc1ccc2c(c1)OCO2)N1CCN(c2ccccc2F)CC1 (stereo not given)	1.8	x
CC(=O)Oc1c2c(c[n+](C)c1C)COC(C)(C)OC2	3.5	x
CCOC(=S)Nc1cccc(C(F)(F)F)c1	1.4	x

New compounds follow.
compound	BasE inh	LANA-nucl inh
O=C(OCC(=O)N1CCCc2ccccc21)c1cc2ccccc2oc1=O	-0.7	x
Cc1sc2c(c1C)c(=O)[nH]c1nnc(Nc3ccccc3)n12	0.5	x
COC(=O)c1sc(N)c(C(=O)OC)c1COC(=O)c1c(C)noc1C	-1.1	x
Cc1cc(C#N)c(SCC(N)=O)nc1-c1ccc(F)cc1	0.2	-0.72
O=C(Nc1cc(-c2cccs2)nn1-c1ccc(I)cc1)C1CCC1	-1.9	0.8
O=C(CCC(=O)c1cccs1)OC1CCOC1=O (stereo not given)	2.7	x
Cc1ccc(C(=O)/C(=C/N(C)C)Sc2ccc(C(F)(F)F)cn2)cc1	1.9	x
CC1SCC(=O)N(CC(=O)NCc2ccc(F)cc2)C1=O (stereo not given)	1.9	-1.3
COc1ccc(-c2csc(Nc3c(C)n[nH]c3C)n2)cc1	-2.2	1.4
CCCN1CCC(NC(=O)c2ccc(F)cc2Cl)CC1	1.2	0.68

Continuation:
compound	BasE inh	LANA-nucl inh
O=C(CSc1nnc(-c2ccc3c(c2)OCO3)o1)N1CCc2ccccc21	1.6	x
CCN(C(=O)CSc1ccc(NC(C)=O)cc1)C1CCS(=O)(=O)C1 (stereo not given)	-1.4	x
O=C(CSc1nc2sc3c(c2c(=O)[nH]1)CCCC3)NCc1cccs1	0.9	-0.61
O=C(COC(=O)c1ccccc1Cl)Nc1nccs1	-2.2	-1.2
CN(C)S(=O)(=O)c1cccc(C(=O)O)c1	2.1	-0.3
O=C(Nc1ccc(-c2nc3c(ccc4ccccc43)o2)cc1)c1ccco1	1.5	x
COc1ccc(-n2c(C)cc3cc(OC(C)=O)ccc32)cc1	1.8	-0.82
CN(C)CCCNCc1ccccn1	3.4	-0.68
COCCCn1c(-c2cccc(OC)c2)nc2nc3ccccc3nc21	1.2	-0.34
O=C(O)C1=NN(c2ccccc2)C(=O)/C1=C/c1cccs1	1.8	x

Structures shown so far that contain a thiophene ring, fused or not:
compound	BasE inh	LANA-nucl inh
c1ccc(Sc2ncnc3ccsc23)nc1	2.8	0.26
CC(C)(CNC(=O)Cc1ccsc1)N1CCOCC1	3.7	x
Cc1sc2c(c1C)c(=O)[nH]c1nnc(Nc3ccccc3)n12	0.5	x
COC(=O)c1sc(N)c(C(=O)OC)c1COC(=O)c1c(C)noc1C	-1.1	x
O=C(Nc1cc(-c2cccs2)nn1-c1ccc(I)cc1)C1CCC1	-1.9	0.8
O=C(CCC(=O)c1cccs1)OC1CCOC1=O (stereo not given)	2.7	x
O=C(CSc1nc2sc3c(c2c(=O)[nH]1)CCCC3)NCc1cccs1	0.9	-0.61
O=C(O)C1=NN(c2ccccc2)C(=O)/C1=C/c1cccs1	1.8	x

Three compounds picked at random from the list so far:
compound	BasE inh	LANA-nucl inh
O=C(O)C1=NN(c2ccccc2)C(=O)/C1=C/c1cccs1	1.8	x
CCN(C(=O)CSc1ccc(NC(C)=O)cc1)C1CCS(=O)(=O)C1 (stereo not given)	-1.4	x
O=C(COC(=O)c1ccccc1Cl)Nc1nccs1	-2.2	-1.2

Remaining list, next part
compound	BasE inh	LANA-nucl inh
O=C(CS)Nc1nc2c3ccccc3ncn2n1	2.8	x
Cc1ccc(Cn2c(=S)[nH]c3ccccc32)cc1	1.9	x
O=C(NC(=S)NC1CC1)c1cccnc1	1.1	-0.64
CCOC(=O)C(C)Oc1ccc(C#N)cc1OC (stereo not given)	5.2	0.073
O=C(NCC(=O)N1CCc2ccccc2C1)c1ccccc1Cl	2.9	x
CNC(=S)N1CCN(S(=O)(=O)c2ccc3ccccc3c2)CC1	-2.8	x
CCN1C(=O)CSc2ccc(C(=O)OC)cc21	1.2	0.84
CSC1CCCCC1(O)CSc1nc2ccccc2o1 (stereo not given)	-4.2	-1.1
Cc1cccc(Nc2ccccc2C(=O)OC(C)C(=O)N2CCN(C(=O)c3ccco3)CC2)c1C (stereo not given)	2.1	x
O=C1CSCC(=O)N1c1cccnc1	-1.7	x

(continued)
compound	BasE inh	LANA-nucl inh
CCOC(=O)c1sc(-c2ccccc2)cc1NC(=O)COC(=O)COc1cc(C)on1	2.8	x
CCN1CCCC1CNCc1cc(=O)n2ccc(C)cc2n1 (stereo not given)	2.5	x
CCC(=O)Nc1nnc(SCCOC)s1	2.0	-0.94
C=CCn1c(/N=C/c2ccc(OCCC(C)C)cc2)nc2ccccc21	1.7	x
O=C1CC(c2ccccc2)N(c2ccc(Cl)cc2Cl)C(=S)N1 (stereo not given)	-0.4	x
CCCCNC(=O)Nc1cccc(-c2nnco2)c1	-3.0	0.71
O=C1CSC(=O)N1CC(O)COc1cccc2ccccc12 (stereo not given)	-3.2	x
Cn1c(=O)n(C)c2cc(N3CCCCC3)c(NS(C)(=O)=O)cc21	1.8	0.66
CCOC(=O)c1cc(C(=O)OC)c(C)nc1N1CCC(NC2CCCCC2O)CC1 (stereo not given)	0.4	x
CN(CC(=O)Nc1ccccc1SCC#N)Cc1ccc(-c2ccc(Br)cc2)o1	-5.9	x

The listing continues:
compound	BasE inh	LANA-nucl inh
COc1ccc2nc(Cl)c(CN(Cc3ccc(F)cc3)C(=O)c3ccco3)cc2c1	-1.9	1.5
C=CCCCCCCCCC(=O)O	x	-0.43
CCN=c1scc(-c2ccccc2)n1/N=C/c1ccc(NC(C)=O)cc1	-0.3	x
N=c1c2cnn(-c3ccccc3)c2ncn1/N=C/c1ccc(Cl)cc1Cl	-2.2	1.8
O=C1/C(=C/c2ccc(-c3cccc(Cl)c3)o2)NC(=S)N1C1CCCCC1	-10	3
CS(=O)(=O)c1nc(S(=O)(=O)c2ccc(Cl)cc2)c(N2CCCC2)s1	-1.7	1.4
COC(=O)c1ccc(S(=O)(=O)N(Cc2ccccc2)Cc2ccccc2)n1C	2.8	x
CC(C)c1ccc(N2C(=O)Cc3c2nc(N)c2c(N)nc(N4CCCC4)c(C#N)c32)cc1	1.3	x
CCC1(C)NC(=O)N(/N=C/C=C2\N(C)c3ccccc3C2(C)C)C1=O (stereo not given)	5.2	x
CCOC(=O)/C(C)=N/Nc1cc(C(F)(F)F)ccc1N1CCOCC1	-0.9	0.75

Further compounds.
compound	BasE inh	LANA-nucl inh
Cc1nnc2sc(-c3ccc(N)cc3)nn12	-0.5	-1.5
CCC(Sc1nnc2c3ccccc3n(CC)c2n1)C(=O)Nc1ccccc1OC (stereo not given)	-1.3	0.58
COC(=O)c1c(C)sc2c(C(F)(F)F)cc(=O)[nH]c12	0.7	x
COc1ccc(OC)c(C2CC(=O)C3=C(C2)NC(=O)CC3c2cccc(O)c2)c1 (stereo not given)	-1.7	0.11
Cc1ccc2cc(CCNC(=O)c3ccc4c(c3)OCO4)c(=O)[nH]c2c1C	-1.0	0.017
COc1ccc(-c2csc(N(CC(C)C)C(=O)c3cccs3)n2)cc1	-1.5	-0.62
O=C(CN1CCCCC1)N1CCc2ccccc21	-1.8	0.63
CCOc1cc(CNc2ccc(N(CC)CC)cc2)ccc1OCC(=O)NC(C)(C)C	2.6	-0.073
O=C(CCC(=O)NC1CC1)NNc1nc2ccccc2c2nc(-c3ccccc3)nn12	-4.7	1.6
Cc1ccsc1/C=N/NC(=O)CO	2.0	-0.62

More structures follow:
Second line of a record: BasE inh | LANA-nucl inh
CCCn1c(=O)c2sccc2n2c(CCCC(=O)N3CCC(C)CC3)nnc12
→ -2.9 | 2.7
Cc1ccc(CSc2nnc(-c3ccncc3)n2CC(C)C)cc1
→ 0.7 | 0.18
CS(=O)(=O)N1CCCN2C(=O)c3ccccc3C21 (stereo not given)
→ 4.9 | x
COC(=O)c1cc(-c2ccccc2OC)nc2c1c(C)nn2CCC#N
→ -0.4 | x
Cc1cc(C(=O)O)ccc1-c1ccc(/C=C2\SC(=S)NC2=O)o1
→ -25 | 5.2
COc1cc(C(=O)Nc2cccc(-c3nc4cc(Cl)ccc4o3)c2C)cc(OC)c1OC
→ 0.7 | -0.39
O=C(Oc1ccc(Cl)cc1)c1ccc(=O)[nH]c1
→ 0.9 | x
Cn1cnnc1SCc1ccc(C(=O)NN=C2C3CC4CC(C3)CC2C4)cc1
→ 1.6 | x
O=C(Cc1ccccc1)Nc1ccn(Cc2ccccc2)n1
→ 2.0 | -1.6
O=C(C1CC(c2ccccc2F)=NO1)N1CCc2ccccc2C1 (stereo not given)
→ -4.2 | -1.3
O=C(O)c1ccc(N2CCCC2)cc1
→ -1.0 | 0.19
CC(NCc1ccc(OC(F)F)cc1OC(F)F)c1ccc(-n2ccnc2)cc1 (stereo not given)
→ -6.2 | x
Cc1ccccc1C(=O)N1CCC(C(=O)N2CCc3ccccc32)CC1
→ -0.9 | x
O=c1oc(-c2cccc3ncccc23)nn1Cc1ccccc1F
→ 2.1 | -0.87
Cc1cc(NNC(=O)c2cccc(C(F)(F)F)c2)nc2c1c(C)nn2C
→ 1.3 | 0.37
FC(F)(F)c1cc(-c2ccc(Cl)cc2)nc(N2CCCCC2)n1
→ -2.7 | -0.11
CC1(C)CC(=O)c2cc3c(N)c(C(=O)Nc4ccccc4)sc3nc2C1
→ 1.9 | x
COC(=O)CC(N)c1ccccc1Cl (stereo not given)
→ 0.6 | x
CN1c2ccccc2N(C)C1c1ccc2c(c1)OCO2
→ 0.1 | -0.42
COc1ccc(C2=C(C)C(=NCCCN(C)Cc3ccccc3)NS2(=O)=O)cc1
→ -1.8 | -0.31

Next section.
Second line of a record: BasE inh | LANA-nucl inh
CC(NC(=O)COc1ccccc1O)C1CC2CCC1C2 (stereo not given)
→ 72 | x
CN1CCSC1=NCCSc1ccc(Cl)cc1
→ -0.7 | x
O=C(c1ccccc1)N(Cc1ccc2c(c1)OCO2)Cc1nc2ccccc2c(=O)[nH]1
→ -0.8 | 0.15
Cc1ccnc(NC(=O)CSC2=NC(=O)C(c3ccccc3)C(=O)N2)c1 (stereo not given)
→ 3.4 | -0.37
Cc1nnsc1C(=O)Nc1ccc(F)cc1
→ 0.3 | -0.011
NC(=O)COc1ccc(Br)cc1CNCc1ccco1
→ -3.0 | -1.1
Cc1csc2ncnc(N3CCN(C(=S)Nc4ccc(F)cc4F)CC3)c12
→ 0.8 | x
COc1cc(C#N)ccc1OC(=O)c1oc2ccccc2c1CSc1nc(C)cs1
→ -0.1 | x
Cc1ccc(S(=O)(=O)NC2CCC(C)CC2)cc1C (stereo not given)
→ 2.8 | x
FC(F)(F)c1nnc2n1Nc1nc3ccccc3nc1S2
→ 9.4 | x
O=C(Nc1ccc(S(=O)(=O)Nc2ccccn2)cc1)c1ccc(F)cc1
→ -0.8 | 0.58
O=C(NCC1CC1)Nc1ccccc1
→ 1.1 | x
Cc1cccc(C2=NN3C(=N)/C(=C\c4ccc5c(c4)OCO5)C(=O)N=C3S2)c1
→ 0.6 | 0.071
O=C(c1cc(Cl)c2c(c1)OCO2)N1CCCSc2ccccc21
→ -0.6 | x
CCc1ccc(NC(=O)C(C)N2C(=O)c3ccccc3C2=O)cc1 (stereo not given)
→ -0.9 | x
CS(=O)(=O)NC1CC(=O)N(c2cccc(F)c2)C1 (stereo not given)
→ 1.2 | 0.29
CCOC(=O)c1ccc(NCn2c(=O)oc3ccccc32)cc1
→ -0.5 | 0.061
Cc1ccc(-c2nnn(CC(=O)N(c3ccccc3)C(C(=O)NCc3ccccc3)c3ccncc3)n2)o1 (stereo not given)
→ -1.2 | 0.7
CC(=O)Nc1sccc1C(=O)O
→ x | 0.72

Compound activity deposited in PubChem by ICCB-Longwood Screening Facility, Harvard Medical School.
